# High-throughput results as filed in PubChem BioAssay.
# TRPML1 inh: blocks the human TRPML1 channel. Q9GZU1. TRPML1-inducible cells, Ca2+ dye fluorescence, FDSS; hits give low values; inhibition of EC80 agonist-evoked calcium signal. activity change, negative = inhibition, % (no concentration beside the values). 390,000 compounds, 0.02% hits. AID 624415; in the data active means activity change below about -50%; inconclusive means about -30% to -50%; inactive means above about -30%;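 further: stimulus is agonist 54-4 at its EC80 concentration; on the % scale 0 is the no-effect control and ±100 the full control effect; compound concentration not given in the record; the text of the record puts the active cut at -80%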
# Target sequence (Q9GZU1 whole entry, looked up): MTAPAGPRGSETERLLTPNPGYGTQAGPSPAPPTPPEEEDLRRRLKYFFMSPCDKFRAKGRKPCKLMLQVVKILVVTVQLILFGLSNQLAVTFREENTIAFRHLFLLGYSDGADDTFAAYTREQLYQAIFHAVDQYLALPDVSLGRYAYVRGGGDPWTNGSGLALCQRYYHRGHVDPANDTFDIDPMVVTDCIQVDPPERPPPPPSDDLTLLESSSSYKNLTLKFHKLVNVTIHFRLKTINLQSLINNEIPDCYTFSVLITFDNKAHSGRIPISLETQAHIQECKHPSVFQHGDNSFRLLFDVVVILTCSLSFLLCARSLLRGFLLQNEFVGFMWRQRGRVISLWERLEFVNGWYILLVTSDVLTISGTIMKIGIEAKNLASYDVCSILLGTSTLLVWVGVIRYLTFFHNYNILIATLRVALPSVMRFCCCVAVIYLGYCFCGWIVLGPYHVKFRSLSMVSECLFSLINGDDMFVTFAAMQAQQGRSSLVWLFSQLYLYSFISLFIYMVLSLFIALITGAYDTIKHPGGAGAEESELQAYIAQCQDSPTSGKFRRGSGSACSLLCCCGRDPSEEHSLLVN
#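 Tet-induced TRPML1-DL cells loaded with Ca8 no-wash calcium dye were read kinetically on FDSS. Compound addition was followed by EC80 agonist 54-4 (4 uM final); inhibition was read over 110 s.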
# ClpP mod: qHTS Assay for Activators of ClpP; ATP-dependent Clp protease proteolytic subunit (Bacillus subtilis (strain 168)), P80244; purified B. subtilis ClpP, FRET peptide cleavage, 20 min; Potency, µM (titrated, usually from 57.5 µM), inactives show at the top dose activity change, negative = active; 340,000 compounds, 1.9% hits; active = well fitted falling curve with a large enough effect; inconclusive = small, poorly fitted or top-dose-only effect; inactive = no such curve, though single readings can be large or run the other way; further: potency means the concentration at half of the fitted maximal effect; the source files actives as falling curves though it sought activators and does not explain the sign; nearly all actives have a fitted effect of over 65% in size; many hits overshoot -100%
# Target sequence (P80244 whole entry, looked up): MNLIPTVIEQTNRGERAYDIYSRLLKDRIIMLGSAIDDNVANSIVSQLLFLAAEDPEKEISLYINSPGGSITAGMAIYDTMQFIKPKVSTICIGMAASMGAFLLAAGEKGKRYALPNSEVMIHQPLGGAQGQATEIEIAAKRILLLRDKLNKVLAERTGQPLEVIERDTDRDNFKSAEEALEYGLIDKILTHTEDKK
#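 Purified B. subtilis ClpP, 10 microg/mL final in Tris/HCl pH8 with KCl, BSA, glycerol and Tween-20, cleaved an Abz/nitrotyrosine-quenched decapeptide. Fluorescence (ex 320, em 430) was read at 0 and 20 min at room temperature. Delta was normalized to 5.8 microM ADEP and DMSO/no-enzyme controls.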
# Menin-MLL FL inh: menin-MLL binding inhibition, fluorescein peptide | Fluorescence polarization, fluorescein-MLL peptide displacement from menin | FP activity change, % at 61.4 µM | 290,000 tested, under 10 active; inconclusive = falling polarisation curve, or a change in total fluorescence; inactive = total fluorescence flat and polarisation flat or rising; no compound was filed as active; the % refers to the polarisation; negative = inhibition;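 further: % of control where 0% means no effect; inhibitors lower the polarisation; unlabelled MLL peptide was the positive control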
# TRPML1 agonist: agonists of human TRPML1 channel. Q9GZU1. TRPML1-expressing cells, Ca2+ dye fluorescence, FDSS; host cell line not named in the record; reference of the full effect not given here. activation, % (test concentration not listed). 410,000 compounds, 0.12% hits; in the data active = activation above about 50%; inconclusive = about 30% to 50%; inactive = below about 30%; further: 0% is about no effect; the text of the record puts the active cut at 80%
#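 Calcium fluorescence on an FDSS kinetic reader gave the read-out. Tet-induced TRPML1-DL cells were plated overnight, dye-loaded (Ca8 with quencher, 45-90 min, room temperature, dark), then read 110 s after compound addition, and again 110 s after 4uM final 54-4 (EC80).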
# gsp agonist: activates gsp, the McCune-Albright syndrome mutation. Potency, µM (doses to about 76.9 µM), for the others: at the highest dose activation (cAMP increase), hits mostly activators. 340,000 compounds, 0.13% hits. AID 624287. gsp mutant cells, cAMP HTRF, 30 min; control for the full effect not named in the record; active = well fitted activation curve with a large enough effect; inconclusive = small, poorly fitted or top-dose-only effect, or another doubt; inactive = no such curve, though single readings can be large or run the other way; cell line not stated here;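 further: phosphodiesterase inhibitor Ro 20-1724 added with compounds to block cAMP breakdown; potency means the concentration at half of the fitted maximal effect; nearly all actives have a fitted effect of over 60% in size; about a fifth of the inactives were tested at one dose only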
#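 Cells in DMEM/10% FBS with G418 were pretreated with compounds in DMSO plus […] (300 uM stock) for 30 min at 37C. cAMP was measured by HTRF (cAMP-d2 plus anti-cAMP antibody-K) after 30 min at room temperature.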
# gsp antag: antagonizes gsp, the McCune-Albright syndrome mutation. gsp-mutant cells, cAMP HTRF, 30 min; control for the full effect not named in the record. Potency, µM (top dose mostly 76.9 µM), for inactives: at the top dose activity change, negative = inhibition, most hits filed as inhibitors. 340,000 compounds, 0.4% hits. AID 624288; active = falling curve of any shape with a large fitted effect; inconclusive = falling curve, mostly with a smaller effect; inactive = flat or rising curve; cell line not stated here;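 further: intracellular cAMP measured with PDE inhibitor Ro 20-1724 present during compound exposure; potency means the concentration at half of the fitted maximal effect; on the % scale 0 is the no-effect control and ±100 the full control effect; nearly all actives have a fitted effect of over 65% in size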
#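 HTRF cAMP read-out (cAMP-d2 plus anti-cAMP antibody-K in lysis buffer, 30 min RT). Before lysis, cells are exposed to compounds with […] for 30 min at 37C in DPBS containing Ca/Mg, BSA and Tween 20.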
# Numbers without * were called inactive; ? = inconclusive; . = not tested or not shown; [ ] = dose if it differs, or a comment. Compounds as they come; any-hit rate near 2.1%.
SMILES,TRPML1 inh,ClpP mod,Menin-MLL FL inh,TRPML1 agonist,gsp agonist,gsp antag
Cc1ccsc1-c1nc(C(N)=O)c2[nH]c(=O)n(-c3ccc(Cl)cc3)c2n1,-25,?,-2.4,0.0,9%,6%
O=C(CN1CCOCC1)Nc1scc2c1c(=O)oc1ccccc12,28,.,-1.5,0.4,16%[15.4 µM],10%
Cc1ccc(C(=O)c2c3ccc([N+](=O)[O-])cc3[n+]([O-])n2CCCN)cc1,-4,1.1%,.,-0.7,0%,5%
Cc1cccc(OCc2nnc(SC(C)C(=O)O)n2Cc2ccccc2)c1 (centres undefined),14,.,0.2,-0.5,13%,4%
CC1CCN(S(=O)(=O)c2ccc(Br)s2)CC1,14,-1.9%,0.6,-0.5,-5%,-22%
COc1ccc(OC)c(C2C(C(C)=O)=C(C)Nc3ncnn32)c1 (centres undefined),-5,1.3%,6.9,-0.1,6%[15.4 µM],6%
Cn1cc([N+](=O)[O-])c(C(=O)Nc2ccc3nc(-c4ccccc4)[nH]c3c2)n1,-3,?,5.0,0.0,?,12%
CC(=O)N1N=C(c2ccccc2O)CC1c1cccs1 (centres undefined),10,.,0.8,1.1,-7%,-12%
O=c1c(C(c2ccc(F)cc2)c2c(O)nc3n(c2=O)CCCS3)c(O)nc2n1CCCS2,-9,1.2%,0.2,1.2,-12%,-8%
CCOC(=O)CCc1nc2ccccc2[nH]c1=O,-1,1.6%,0.4,-0.9,-9%,14%
CCS(=O)(=O)N1CCC(C(=O)NCc2cccnc2)CC1,4,-1.0%,2.9,0.5,?,10%
CN1C(=O)CC(c2cn(Cc3ccccc3)c3ccccc23)C1=O (centres undefined),-7,-0.9%,?,-0.5,-1%,-6%
Oc1ccc(/C=N/N2CCN(C3c4ccccc4-c4ccccc43)CC2)cc1,-6,.,7.7,1.2,-13%[15.4 µM],-2%
COC(=O)c1c(C)[nH]c(-c2csc(N)n2)c1C,19,.,?,1.9,17%,11%
CC(=O)c1c(C)[nH]c(C(=O)CSc2nnc3ccccn23)c1C,-14,1.8%,0.3,1.1,-11%,13%
Cc1ccc2[nH]c(=O)c(CN(CCCN3CCOCC3)C(=O)Nc3cccc(Cl)c3)cc2c1,38,?,4.1,1.0,-2%,-11%
CCCN1CCN(CCCNC(=S)Nc2ccc3nc(N4CCN(CC)CC4)cc(C)c3c2)CC1,-1,4.1%,-4.7,-0.7,-8%,9%
CCN(CC)S(=O)(=O)c1ccc2c(c1)N(CC(=O)N(CCc1ccncc1)C(C)C)C(=O)CO2,18,-1.1%,-0.4,0.4,-9%,-12%
O=C(O)c1sccc1Oc1ccc(NS(=O)(=O)c2ccc(Cl)cc2)cc1,-4,3.1%,-0.1,1.1,-30%,3%
Cc1ccccc1CNC(=O)CCc1ccccc1,-4,.,1.2,-0.8,-25%[15.4 µM],11%
CCOc1cc(N2CCOCC2)c(OCC)cc1NC(=O)c1c(-c2ccccc2Cl)noc1C,43,.,-2.6,0.6,-2%,?
COc1ccc(Cl)cc1NC(=O)CSc1cn(CC(=O)N2CCCC2)c2ccccc12,8,0.5%,.,0.5,.,.
Cc1ccc2c(=O)cc(C(=O)Nc3sc4c(c3C(=O)NCC3CCCO3)CCCC4)oc2c1 (centres undefined),2,-2.8%,.,-0.3,.,.
Cc1c(NC(=O)c2cc(=O)[nH]c3ccccc23)c(=O)n(-c2ccccc2)n1C,17,-3.4%,-0.7,0.1,-9%,1%
CCOc1ccc(CCNC(=O)COC(=O)c2cc(OC)cc(OC)c2)cc1OCC,14,.,-1.0,0.4,-3%[15.4 µM],5%
O=C1CC(c2ccccc2)c2cc(O)ccc2O1 (centres undefined),9,-8.8%,0.7,-0.4,23%,-3%
COc1cccc(NC(=O)CCN2CCN(C)CC2)c1,3,0.4%,-0.8,0.5,14%,12%
CCOc1ccc(NC(=O)c2ccc(CNc3c(N4CCCC4)c(=O)c3=O)cc2)cc1,-1,1.8%,3.2,-0.4,-13%,1%
Cc1ccc(C(=O)N/C(=C\c2ccco2)C(=O)NCC2CCCO2)cc1C (centres undefined),7,-1.9%,1.6,-0.1,5%,-9%
Cc1ccccc1CSCC1Nc2ccc(C(=O)NCCc3ccccc3)cc2NC1=O (centres undefined),-4,3.7%,.,0.5,-63%[inhibitor],.

# Quoted from the listing (14 entries):
SMILES,TRPML1 inh,ClpP mod,Menin-MLL FL inh,TRPML1 agonist,gsp agonist,gsp antag
Cc1ccsc1-c1nc(C(N)=O)c2[nH]c(=O)n(-c3ccc(Cl)cc3)c2n1,-25,?,-2.4,0.0,9%,6%
O=C(CN1CCOCC1)Nc1scc2c1c(=O)oc1ccccc12,28,.,-1.5,0.4,16%[15.4 µM],10%
Cc1ccc(C(=O)c2c3ccc([N+](=O)[O-])cc3[n+]([O-])n2CCCN)cc1,-4,1.1%,.,-0.7,0%,5%
Cc1cccc(OCc2nnc(SC(C)C(=O)O)n2Cc2ccccc2)c1 (centres undefined),14,.,0.2,-0.5,13%,4%
CC1CCN(S(=O)(=O)c2ccc(Br)s2)CC1,14,-1.9%,0.6,-0.5,-5%,-22%
COc1ccc(OC)c(C2C(C(C)=O)=C(C)Nc3ncnn32)c1 (centres undefined),-5,1.3%,6.9,-0.1,6%[15.4 µM],6%
Cn1cc([N+](=O)[O-])c(C(=O)Nc2ccc3nc(-c4ccccc4)[nH]c3c2)n1,-3,?,5.0,0.0,?,12%
CC(=O)N1N=C(c2ccccc2O)CC1c1cccs1 (centres undefined),10,.,0.8,1.1,-7%,-12%
O=c1c(C(c2ccc(F)cc2)c2c(O)nc3n(c2=O)CCCS3)c(O)nc2n1CCCS2,-9,1.2%,0.2,1.2,-12%,-8%
CCOC(=O)CCc1nc2ccccc2[nH]c1=O,-1,1.6%,0.4,-0.9,-9%,14%
CCS(=O)(=O)N1CCC(C(=O)NCc2cccnc2)CC1,4,-1.0%,2.9,0.5,?,10%
CN1C(=O)CC(c2cn(Cc3ccccc3)c3ccccc23)C1=O (centres undefined),-7,-0.9%,?,-0.5,-1%,-6%
Oc1ccc(/C=N/N2CCN(C3c4ccccc4-c4ccccc43)CC2)cc1,-6,.,7.7,1.2,-13%[15.4 µM],-2%
COC(=O)c1c(C)[nH]c(-c2csc(N)n2)c1C,19,.,?,1.9,17%,11%

# (further entries)
SMILES,TRPML1 inh,ClpP mod,Menin-MLL FL inh,TRPML1 agonist,gsp agonist,gsp antag
O=C(CCC(=O)c1cccs1)OCC(=O)N1CCN(S(=O)(=O)c2ccccc2)CC1,25,0.4%,-0.2,-0.2,-20%,-7%
O=C(NCCCn1ccnc1)C(=O)NCc1ccccc1,4,-1.6%,2.4,1.9,-34%,12%
NCCCC[C@@H](C(=O)NCCCCCCCCCCC(=O)N1CCNCC1)n1cc(CCO)nn1,-2,0.9%,.,-0.6,-14%,13%
Cc1oc(CC(C)C)cc1C(=O)Nc1ccc(C(=O)O)cc1,-4,-1.9%,3.8,-0.4,-16%,1%
CCOc1ccc(C(=O)c2cn(CC(=O)Nc3cc(OC)ccc3OC)c3cc(OC)c(OC)cc3c2=O)cc1,-21,-3.7%,.,-0.2,.,.
CNC(=S)N/N=C/c1c(Cl)cccc1Cl,46,-3.3%,5.3,-1.2,-21%,3%
COc1ccc(OCC(=O)NNC(=O)c2ccc(-c3ccccc3)cc2)cc1,2,-22%,1.5,1.1,3%,7%
CCN1C(=O)c2ccccc2S(=O)c2ccc(C(=O)N3CCN(c4ccccc4OC)CC3)cc21 (centres undefined),-1,-2.1%,.,-0.7,.,.
Cc1ccc(Cl)c(OCC(=O)OC(C)C(=O)NC2CC2)c1 (centres undefined),-1,-2.2%,.,-0.8,0%,-4%
Cc1cc(C)nc(NC(=O)C(c2ccccc2)c2ccccc2)c1,-7,-1.3%,4.2,4.1,-2%,-10%
Cc1cc(N2CCCCC2)nc2ccccc12,-16,.,1.7,0.2,5%[15.4 µM],-5%
CCOC(=O)c1sc(=S)sc1SCc1cccc(C(F)(F)F)c1,16,-2.6%,1.0,0.0,-27%,-3%
O=C(Nc1ccccc1)N1CCCN(c2ccc(C(F)(F)F)cc2[N+](=O)[O-])CC1,11,.,7.4,2.5,-1%[15.4 µM],-15%
CC1(C)CN=C(NC2CCCCC2)S1,-8,-0.9%,5.7,0.9,-17%,10%
Cc1cccc(NC(=O)Cn2c(=O)nc(-c3ccccc3)c3ccccc32)c1C,-29,-28%,.,2.6,.,.
NC(=O)c1ccc(Oc2ccc(-c3nnco3)cc2)c([N+](=O)[O-])c1,65,.,-1.7,-0.5,-2%[15.4 µM],.
CCCCNC(=O)C1(O)c2cc(Br)ccc2NC(=O)N1c1cccc(OC)c1 (centres undefined),-7,.,-8.1,0.4,-7%,1%
Cc1ncc([N+](=O)[O-])n1S(=O)(=O)c1ccc2c(c1)OCCO2,1,.,.,-0.1,-2%[15.4 µM],-9%
COc1ccc(C2/C=C\CN(C(=O)C3CCCCC3)C(C)C(=O)N2Cc2ccc(F)cc2)cc1 (centres undefined),16,.,2.7,0.2,.,.
O=C(NC1CCCCC1)N1CCN(C2CCCCC2)CC1,-6,-2.4%,0.4,-0.2,-2%,3%
COc1cccc(CNC(=O)c2ccc(OCC(=O)N3CCOCC3)c(OC)c2)c1,40,.,.,-0.1,1%[15.4 µM],-6%
CCOc1ncccc1C(=O)N(C)CC(=O)Nc1ccc(C)cc1,-3,?,5.7,0.6,6%,5%
Cc1cc(C)c2oc(C(=O)Nc3sc4c(c3C(=O)NCc3ccco3)CCCC4)cc(=O)c2c1,-4,1.7%,.,1.6,.,.
COc1cccc(CNc2nc3ccccc3n2CCN2CCCCC2)c1,57,0.8%,0.7,3.3,22%,4%
Cc1cc(C(F)F)n2nc(C(=O)Nc3cccc(Cl)c3C)nc2n1,0,0.5%,.,-0.9,.,.
CCOC(=O)CCSc1n[nH]c(=S)s1,0,.,2.0,0.3,-20%[15.4 µM],-10%
CS(=O)(=O)N1CCc2cc(S(=O)(=O)Nc3ccc4c(c3)OCCO4)ccc21,-16,0.2%,2.9,2.0,-26%,?
C=CCOC(=O)Nc1c(C(=O)OC)[nH]c2ccc(Cl)cc12,-2,32µM*,2.9,1.4,0%,-7%
COc1ccc2oc(C(F)(F)C(F)F)cc(=O)c2c1,4,?,5.5,0.8,-2%,5%
